# HSD17B inhib: qHTS Assay for Inhibitors of HSD17B4, hydroxysteroid (17-beta) dehydrogenase 4. recombinant HSD17B10, NADH fluorescence kinetic; many of its hits are not listed in these tables. Potency, µM (highest dose often 57.1 µM), inactives show top-dose activity change, negative = inhibition, most hits filed as inhibitors. 7.6% of 75,000 active. AID 893, 2007; active means well fitted inhibition curve with a large enough effect; inconclusive means small, poorly fitted or top-dose-only effect; inactive means no such curve, though single readings can be large or run the other way;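 further: the protocol describes HADH2 (HSD17B10) and not the HSD17B4 of the title; nearly all actives have a fitted effect of over 70% in size; most hits overshoot -100% by far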
#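 Enzyme plus compound, 15 min room temperature; substrate mix added (NAD+ 1 mM, beta-hydroxybutyryl-CoA 90 uM final); plates read kinetically for NADH fluorescence. HADH2 was His-tagged, E. coli-derived, 20 nM.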
# * hit, by the source's call; i = inactive; ? = inconclusive; & = joins results of further samples; [ ] = another dose, or the depositor's remark. On the % scale 0 is the no-effect control and ±100 the full control effect; potency means the concentration at half of the fitted maximal effect.
SMILES,HSD17B inhib
CCOC(=O)Nc1cc(C(=O)OC)cc(C(=O)OC)c1,-8%
Cc1ccc(C)c(NC(=O)C2CCC(C)(C(=O)O)C2(C)C)c1 (stereo unspecified),4%
COc1ccccc1-c1c(C)oc2c(CN3CCN(CCO)CC3)c(O)ccc2c1=O,25µM*
CCN(CC)S(=O)(=O)c1ccc(C(=O)OCCN2C(=O)CCC2=O)cc1,3%
O=C(CSc1nnc(Cn2c(=O)sc3ccccc32)n1CCc1ccccc1)N1CCOCC1,-2%
CCCCNC(=O)c1ccc(NC(=O)C2CCCO2)cc1 (stereo unspecified),-1%
O=C(/C=C\Nc1ccccn1)c1ccc(Cl)cc1,-17%
Cc1cc(C)c2[nH]c(=O)c(C(c3nnnn3CC3CCCO3)N3CCCC(C)C3)cc2c1 (stereo unspecified),-10%
COc1ccc(CCNC(=O)CNCC2CCCO2)cc1OC (stereo unspecified),3%
Cc1ccc(-c2nnn(CC(=O)N(CC(=O)NCC3CCCO3)c3ccccc3)n2)o1 (stereo unspecified),-1%
COc1ccc(Cl)cc1S(=O)(=O)Nc1cccc(C(=O)O)c1,6%
CCC1=C2CC[C@H]3C(=O)N(C)C(=O)[C@H]3[C@H]2[C@@]2(C)C(=O)N(CC3CC3)C(=O)N2C1=O,-2%
CC(=O)N(c1ccc(N(C(C)=O)S(=O)(=O)c2cccs2)cc1)S(=O)(=O)c1cccs1,-8%
COc1ccc(N2CCN(C(CNS(=O)(=O)c3cccs3)c3cccnc3)CC2)cc1 (stereo unspecified),-1%
O=C(CN(CCO)c1ccccc1)NC12CC3CC(CC(C3)C1)C2,7%
CCOC(=O)c1[nH]c(C)c(CN(Cc2ccco2)C(=O)C(F)(F)F)c1C,-3%
CC(C)C(CO)NC(=O)CC(=O)NC(CO)C(C)C (stereo unspecified),6%
COc1ccc(-c2coc3cc(OC)cc(OC)c3c2=O)cc1,?
CC(C)Oc1ccc(C(=O)N(Cc2ccco2)C2CCS(=O)(=O)C2)cc1 (stereo unspecified),2%
COCCNC(=O)c1ccc(Cl)c(Cl)c1,8%
COc1cccc(N2CCN(Cc3cccnc3)CC2)c1,4%
CCOc1ccccc1-c1nc(SCC(=O)O)n[nH]1,-5%
CC(=O)c1cccc(NC(=O)C2CC(=O)N(c3cccc(C)c3C)C2)c1 (stereo unspecified),3%
CCOc1cc(-c2ccc3c(c2)OCO3)cc(=O)c2c(C)oc(C)c12,-24%
CC(C)CCOCC(=O)Oc1ccccc1C(=O)O,25µM*
O=C1CC(c2cccc(Cl)c2)CC(O)=C1C=NCCCO (stereo unspecified),10%
CC(=C1C(=O)c2ccccc2C1=O)N1CCN(c2ccccn2)CC1,?
COc1ccc(CNC(=O)CN2CCC(C(=O)c3ccc(OC)cc3)CC2)cc1,12%
O=C(CC1C(=O)NCCN1C(=O)c1ccc(F)cc1)OCc1ccccc1 (stereo unspecified),6%
COc1ccc(CCNS(=O)(=O)c2cccs2)cc1,-6%
CC(NC(=O)C1CCCCC1)c1ccc2c(c1)OCCO2 (stereo unspecified),6%
CC(C)(C)NC(=O)C1CC(=O)OC12CCCCC2 (stereo unspecified),6%
c1csc(-c2nn3c(-c4ccncc4)nnc3s2)c1,-2%
CCCc1nnc(NC(=O)CSc2ncn[nH]2)s1,2%
Cc1ncoc1C(=O)Nc1ccccc1C(N)=O,12%
Cc1ccccc1-c1nc(N2CCNCC2)c2ccccc2n1,-1%
O=C(Cn1cccc1)N1CCc2ccccc21,-15%
O=C1c2ccccc2C(=O)N1Cc1nc2ccccc2c(=O)n1CCCN1CCOCC1,10%
CS(=O)(=O)N(CC(=O)Nc1ccc2c(c1)OCCO2)Cc1ccccc1,5%
CCOC(=O)C1CCN(c2c(N3CCCC(C(=O)OCC)C3)c(=O)c2=O)CC1 (stereo unspecified),-1%
Cc1ccc(S(=O)(=O)NCCSc2nnnn2C)cc1,3%
COc1ccc(OC)c(S(=O)(=O)Nc2ccc(C(N)=O)cc2)c1,3%
CC1Cc2c(COc3ccccc3)nc3c(c2CO1)CN(CCOc1ccccc1)CC3 (stereo unspecified),-1%[11.4 µM]
CCOc1ccc(C2C(C(=O)c3ccco3)=C(O)C(=O)N2CCCn2ccnc2)cc1 (stereo unspecified),5%
FC(F)(F)c1cc(-c2ccc3c(c2)OCO3)nc(NCc2ccco2)n1,25µM*
Cc1oc(-c2cccc(Cl)c2)nc1CN1CCC(C(=O)NCc2cccnc2)CC1,10%
C=CCn1c(-c2ccc(OC)cc2)nc2ccccc21,?
CCOc1ccc(S(=O)(=O)Nc2cccc(C(=O)N3CCN(c4ccc(OC)cc4)CC3)c2)cc1,4%
CNC(=O)[C@H]1O[C@H](n2cnc3c(NCc4cccc(I)c4)nc(Cl)nc32)[C@@H](O)[C@@H]1O,2%
NCCCCNS(=O)(=O)c1cccc2c(Cl)cccc12,3%
# (further entries)
SMILES,HSD17B inhib
COc1ccc(S(=O)(=O)NCC(=O)N(CC(=O)NCC2CCCO2)c2ccccc2C)cc1 (stereo unspecified),-5%
N#Cc1ccccc1S(=O)(=O)N1CCN(c2ccc(S(=O)(=O)N3CCOCC3)cn2)CC1,-6%
Cc1ccc(Nc2cc(-n3nc(C)cc3C)ncn2)cc1,5%
CC1CCN(S(=O)(=O)c2ccc(S(=O)(=O)NCC(=O)C(C)(C)C)cc2)CC1,11%
Cc1cc(NC(=O)CN2C(=O)CC(c3ccco3)Sc3ccccc32)no1 (stereo unspecified),-4%
O=C(O)c1cccnc1C(=O)O,-6%
C(=N\C(/N=C/c1ccco1)c1ccco1)/c1ccco1,32µM*
CCc1nnc(NC(=O)C2CC(=O)N(CCc3ccccc3)C2)s1 (stereo unspecified),-1%
O=S(=O)(c1ccc2c(c1)nc1n2CCC1)N1CCOCC1,1%
CCn1c(=N)n(CC(=O)OC)c2ccccc21,6%
CC(C)C1=CC2=CC[C@@H]3[C@@](C)(C(=O)O)CCC[C@]3(C)C2CC1 (stereo partly specified),?
COc1ccc(N(CC(=O)NC2CCCCC2)C(=O)CCCC(=O)Nc2ccccn2)c(OC)c1,2%
O=S(=O)(c1ccc2oc3ccc(S(=O)(=O)N4CCCC4)cc3c2c1)N1CCCC1,-21%
c1ccc(COc2cccc(CNn3cnnc3)c2)cc1,6%
CCn1c(=O)c2cc(S(=O)(=O)NC3CCCCC3)ccc2n(CC)c1=O,10%
CCOC(=O)c1cc2oc(C(c3nnnn3C3CCCCC3)N3CCOCC3)cc2[nH]1 (stereo unspecified),-17%
O=C(NCc1ccco1)C1(S(=O)(=O)c2ccc(Cl)cc2)CC1,2%
C#CCOc1ccc2c(C)cc(=O)oc2c1,3%
CCOC(=O)CCSc1nc(C)c2ccccc2n1,-13%
Cc1c[nH]c2cccc(OCC(O)CNC(C)(C)C)c12 (stereo unspecified),9%
COc1cc(C(=O)Nc2oc(-c3ccccc3)c(-c3ccccc3)c2C#N)cc(OC)c1OC,6%
CCCS(=O)(=O)N1CCC(C(=O)NCCc2ccc(C)cc2)CC1,6%
Nc1nc(-c2cccnc2)nc(N2CCCCC2)n1,-8%
CCn1cc(C(=O)NCCCN2CCC(C)CC2)c2cc(OC)c(OC)cc2c1=O,-2%
C=C1C2CC[C@@]3(C)C(c4ccoc4)OC(=O)C[C@@]13OC1CC(O)C(C)(C)C(CC(=O)OC)[C@@]12C (stereo partly specified),-3%&0%
O=C(Cn1cc2c(n1)CCCC2)NC1CCN(Cc2ccccc2)CC1,2%
COc1ccc(Br)cc1S(=O)(=O)N1CCN=C1C,4%
O=C(CN(CC1CCCO1)C(=O)Cn1nnc(-c2ccc(F)cc2)n1)NC1CCCCC1 (stereo unspecified),0%
O=C1CC(c2ccc3c(c2)OCO3)C2=C(CCCC2=O)N1 (stereo unspecified),-11%
CCn1c(SCC(=O)Nc2ccc(NC(C)=O)cc2)nnc1C1CC1,-1%
Cc1cc(NC(=O)c2cccc(F)c2)ncc1NC(=O)c1ccco1,-6%
Cc1ccc(NCc2nnc(SCC(=O)Nc3ccccc3)n2CC2CCCO2)c(C)c1 (stereo unspecified),-3%
COc1cc(C(=O)Nc2cccc3ncccc23)cc(OC)c1OC,25µM*
O=C(Nc1ccccc1O)c1ccccc1O,10%
Fc1ccc(Nc2ccnc(-c3ccoc3)n2)cc1,0%
c1ccc(OCCCc2nc(-c3cccnc3)no2)cc1,-1%
Cn1c(SCc2cnc(-c3ccccc3)s2)nnc1C1COc2ccccc2O1 (stereo unspecified),-1%
COC(=O)c1ccc(OC(=O)c2nn(C)cc2Cl)c(OC)c1,4%
CC(C)(C)NC(=O)C(c1ccccc1)N(C(=O)c1ccco1)C1CC1 (stereo unspecified),2%
C/C(N)=C(/C#N)C(=O)CSc1nc2ccc(C)cc2[nH]1,-15%

# Compounds listed so far that have a CF3 group, in the order listed:
SMILES,HSD17B inhib
CCOC(=O)c1[nH]c(C)c(CN(Cc2ccco2)C(=O)C(F)(F)F)c1C,-3%
FC(F)(F)c1cc(-c2ccc3c(c2)OCO3)nc(NCc2ccco2)n1,25µM*

# Carrying on.
SMILES,HSD17B inhib
CC(=O)N[C@H](Cc1ccc(O)cc1)C(=O)O,0%[11.4 µM]
CCCCCCN(C(=O)CCCCCN1C(=O)NC(c2ccc(-c3ccccc3)cc2)C(C(=O)OCc2ccccc2)=C1C)C(C(=O)NCCCC)c1cccc(C(=O)OC)c1 (stereo unspecified),-6%
O=C(c1ccc2c(c1)C(=O)N(Cc1ccco1)C2=O)N1CCOCC1,13%
CCn1c(SCc2cc(=O)[nH]c3ccccc23)nc2c1c(=O)n(C)c(=O)n2C,0%
Cc1onc(-c2ccccc2Cl)c1C(=O)Nc1nn[nH]n1,1%
CCc1cc2c(C)cc(=O)oc2cc1OC(=O)C1CCCN1C(=O)OC(C)(C)C (stereo unspecified),i
COCc1nc(-c2ccc(-c3ccc(C)cc3)nc2OC)no1,32µM*
CCOC(=O)C1=C(c2ccccc2)NC(=O)NC1c1ccc(N(C)C)cc1 (stereo unspecified),-4%
CCc1ccccc1NC(=O)CSc1nnc([C@@H](NC(=O)OC(C)(C)C)C(C)C)o1,4%
COc1cccc(NC(=O)c2ccccc2-c2nc(-c3ccc(Cl)cc3)no2)c1,-17%
COc1cccc(C2c3c(oc4cc(C)c(C)cc4c3=O)C(=O)N2CCCN(C)C)c1 (stereo unspecified),3%
COc1cc(NC(=O)c2ccco2)c(OC)cc1NC(=O)CCC(=O)Nc1cc(C)cc(C)c1,?
Cc1cc(C)cc(C(=O)N(C)[C@H](Cc2ccc(-c3ccccc3)cc2)C(=O)N[C@@H](Cc2c[nH]c3ccccc23)C(=O)O)c1,?
COc1ccc(S(=O)(=O)Nc2c(C(=O)O)[nH]c3ccccc23)c(OC)c1,2%
COCCCNC(=O)c1c(-c2ccccc2)noc1C,10%
CCCSc1nnc2nc(C)cc(C)n12,-11%
Oc1c(Cl)cc(CN(Cc2cc(Cl)c(O)c(Cl)c2)C2CCCCC2)cc1Cl,-5%[11.4 µM]
Cc1cccc(C)c1NC(=O)CC(NCc1ccco1)C(=O)O (stereo unspecified),3%
CCCCC#CC1C=CC(OC(C)=O)C(COC(C)=O)O1 (stereo unspecified),-5%[11.4 µM]
O=C(C1CCN(S(=O)(=O)c2ccc(F)cc2)CC1)N1CC=C(c2ccccc2)CC1,3%
O=C(O)c1ccc2c(c1)N(Cc1ccccc1F)C(=O)c1ccccc1S2=O (stereo unspecified),-5%
C=CCn1c(CCCNC(=O)CCC)nc2ccccc21,7%
O=C1c2oc3ccc(Cl)cc3c(=O)c2C(c2ccco2)N1CCN1CCOCC1 (stereo unspecified),39%[activator]
CSCCC(NC(N)=O)C(=O)N(C)CC(=O)Nc1ccc(C)cc1 (stereo unspecified),3%
O=C(c1ccc(NC(=O)C2(c3ccccc3)CCOCC2)cc1)N1CCOCC1,9%
CCOC(=O)CCc1c(C)nc(SCCN2CCCC2)c(C#N)c1C,10%
CCc1cccc(NC(=O)Cn2cc3c(n2)CCCC3)c1,-2%
Cc1cc(C)c2c(SCc3ccc(Cl)cc3Cl)nc(N)nc2n1,2%[11.4 µM]
O=C(Nc1ccc2c(c1)OCCO2)c1ccccc1F,-3%
O=C1CSC(=O)N1CCOCCN1C(=O)CSC1=O,16%
CC(=O)c1sc(-c2c(C)nc3sccn23)nc1C1CCCC1,-20%
COc1ccc(Cl)cc1NC(=O)N1CCN(S(C)(=O)=O)CC1,8%
Cc1cccnc1NC(=O)Nc1ccc(F)cc1,12%
COc1ccc(NC(=O)c2oc3ccccc3c2NC(=O)C2CC2)cc1,20µM*
COC(=O)c1ccccc1,6%
CCSc1ccccc1C(=O)N1CCN(c2ccccc2F)CC1,-2%

# By substructure: those above with two or more sulfur atoms.
SMILES,HSD17B inhib
O=C(CSc1nnc(Cn2c(=O)sc3ccccc32)n1CCc1ccccc1)N1CCOCC1,-2%
CC(=O)N(c1ccc(N(C(C)=O)S(=O)(=O)c2cccs2)cc1)S(=O)(=O)c1cccs1,-8%
COc1ccc(N2CCN(C(CNS(=O)(=O)c3cccs3)c3cccnc3)CC2)cc1 (stereo unspecified),-1%
COc1ccc(CCNS(=O)(=O)c2cccs2)cc1,-6%
c1csc(-c2nn3c(-c4ccncc4)nnc3s2)c1,-2%
CCCc1nnc(NC(=O)CSc2ncn[nH]2)s1,2%
Cc1ccc(S(=O)(=O)NCCSc2nnnn2C)cc1,3%
N#Cc1ccccc1S(=O)(=O)N1CCN(c2ccc(S(=O)(=O)N3CCOCC3)cn2)CC1,-6%
CC1CCN(S(=O)(=O)c2ccc(S(=O)(=O)NCC(=O)C(C)(C)C)cc2)CC1,11%
O=S(=O)(c1ccc2oc3ccc(S(=O)(=O)N4CCCC4)cc3c2c1)N1CCCC1,-21%
Cn1c(SCc2cnc(-c3ccccc3)s2)nnc1C1COc2ccccc2O1 (stereo unspecified),-1%
O=C1CSC(=O)N1CCOCCN1C(=O)CSC1=O,16%
CC(=O)c1sc(-c2c(C)nc3sccn23)nc1C1CCCC1,-20%

# Not all compounds are listed; rates above refer to the full screens.
